# Screening results as filed in PubChem BioAssay.
# Mtb growth: Mycobacterium tuberculosis H37Rv growth inhibition, cell based, confirmatory dose response (AID 1949); 100,000 compounds, 1.6% hits; inhibition, % at 10 µg/mL, or IC50 in µg/mL where a hit was titrated; most inactive calls were filed without a number and no value below 0 was filed;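 active means confirmed in a dose series; inconclusive means about 50% or more but not retested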;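 further: bacteria grown 7 days with compound before Alamar blue readout; 0% = untreated bacteria and 100% = reference antibiotic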
# An asterisk follows results filed as active; i = inactive; ? = inconclusive. An excerpt; rates above refer to the full screens.
canonical_smiles,Mtb growth
Cn1cc(Cl)c(C(=O)Nc2ccc(F)cc2F)n1,i
CC(=O)Nc1nonc1C(=O)N1CCC(C)CC1,i
CC(NCc1ccccc1Cl)C(O)c1ccccc1 (centres undefined),i
O=C(Cn1cc(C(=O)C2CC2)c2ccccc21)NCc1ccccc1,i
Cc1cc(C)cc(C(=O)Nc2ccccn2)c1,i
C=CCNc1oc(-c2ccc(OC)cc2)nc1C#N,i
O=C(Nc1cc(-c2nc3ccccc3s2)c(Cl)cc1Cl)c1cccnc1,i
COc1ccc(-c2nnc(SCC(=O)Nc3ccccc3F)o2)cc1,5%
S=C(NCCc1c[nH]c2ccccc12)NC1CC1,i
CC(C)=C1C2C=CC1C1C(=O)N(c3ccc(C)cc3[N+](=O)[O-])C(=O)C21 (centres undefined),i
CC(C)NC(=O)c1ccccc1NC(=O)C(Cl)Cl,i
CS(=O)(=O)N(CC(=O)N1CCc2ccccc2C1)c1cccc([N+](=O)[O-])c1,i
Cc1ccc(C(=O)Nc2nc(OC(=O)c3ccc(C)cc3)cs2)cc1,i
Cc1cc(C(=O)Nc2cccc(NC(=O)c3cccs3)c2)ccc1[N+](=O)[O-],i
CCOC(=O)c1cnc2c(CC)cccc2c1NCCCN1CCOCC1,0%
Cc1ccc(N=C(N)N=C(N)N)cc1C,i
O=C(Cc1ccccc1)Nc1nnc(CC2=CCCCC2)s1,i
CS(=O)(=O)N1CCN(C(=O)C2c3ccccc3Oc3ccccc32)CC1,i
Clc1ccc(OCCCCn2ccnc2)c(Br)c1,1.5µg/mL*
CCOc1cccc(CNc2ccc(O)cc2)c1OCc1ccccc1Cl,28%
CCOC(=O)c1ccc(NC(=S)N2CCN(S(C)(=O)=O)CC2)cc1,i
CC(C)=CCC12CN3CCN(CC(C3)C1O)C2 (centres undefined),i
O=C1c2oc3ccc(Br)cc3c(=O)c2C(c2cccc([N+](=O)[O-])c2)N1Cc1ccc(F)cc1 (centres undefined),i
O=C(CC(=O)c1ccccc1)Nc1cccc(S(=O)(=O)Nc2ccccc2)c1,i
O=C(CCN1CCc2ccccc2C1)Nc1ccc2c(c1)OCO2,1%
CC(Oc1ccc(Cl)cc1Cl)C(=O)Nc1cc(-c2nc3ccccc3o2)ccc1Cl (centres undefined),i
Cc1cccc(NC(=O)COc2cc(Cl)ccc2Cl)c1C,i
Cc1ccc(-c2csc(NC(=S)NC(=O)c3ccccc3Br)n2)cc1,i
Nc1ccc2c(c1)Nc1ccccc1CC2,i
CS(=O)(=O)N(CCc1ccccc1)CC(=O)N1CCC(Cc2ccccc2)CC1,i
COc1ccc(S(=O)(=O)N2CCCC2C(=O)Nc2ccc(Br)cc2)cc1 (centres undefined),i
COC(=O)c1[nH]c2c(c1C)C(=O)C(C(=O)OC)C(C)C2 (centres undefined),i
CCOC(=O)N1CCN(C(=O)CSCc2c(F)cccc2Cl)CC1,i
Cc1ccccc1CNC(=O)c1ccccc1N(Cc1ccccc1)S(=O)(=O)c1ccccc1,9%
Cc1cccc(NC(=O)c2cc(Br)c(C)c(C)c2C)c1,12%
COc1cc(NC(=S)NC(=O)c2ccc(-c3ccc(Br)cc3)o2)ccc1NC(=O)C(C)C,i
CC1=NN(c2ccc3cccc(O)c3n2)C(=O)C1,1%
Cc1onc(-c2c(Cl)cccc2Cl)c1C(=O)Nc1sc(C)c(C)c1C(N)=O,i
COC(=O)CC(C(=O)Nc1cc(C(=O)OC)cc(C(=O)OC)c1)N1CCN(C)CC1 (centres undefined),i
CCn1c2ccccc2c2nnc(SCC(=O)Nc3ccccc3C#N)nc21,i

# Part of the list above in a different format:
CCn1c2ccccc2c2nnc(SCC(=O)Nc3ccccc3C#N)nc21
- Mtb growth = i
COc1cc(NC(=S)NC(=O)c2ccc(-c3ccc(Br)cc3)o2)ccc1NC(=O)C(C)C
- Mtb growth = i

# Next compounds follow.
canonical_smiles,Mtb growth
Cc1ccc(S(=O)(=O)N(CC(=O)N2CCCC2)C2CCCCC2)cc1,i
Cc1cc(C(C)(C)C)ccc1OCCCNCCN,20%
CCOC(=O)c1cccc(N2C(=O)C3C4c5ccccc5C(CC)(c5ccccc54)C3C2=O)c1 (centres undefined),6%
COc1ccc(Cc2nnc(SCC(=O)NC(C)c3ccccc3)o2)cc1 (centres undefined),i
Cc1ccc(OCC(=O)N2CCc3ccccc32)c(C)c1,i
CSCCC(C(=O)O)n1c(-c2ccc3ccccc3n2)n[nH]c1=S (centres undefined),i
COc1ccc(C2CC(=O)C3=C(C2)Nc2ccccc2NC3c2ccc(Cl)c([N+](=O)[O-])c2)cc1 (centres undefined),35%
COc1ccc(CN2CCN(C(=O)COc3ccccc3)CC2)cc1Br,i
COc1cc(C2C(C(=O)Nc3ccc(F)cc3)=C(C)NC3=C2C(=O)CC(c2ccccc2)C3)cc(OC)c1OC (centres undefined),i
Cc1cc(C)nc(SCc2cnc(C)nc2N)n1,1%
O=C(CSc1nnnn1-c1ccccc1)c1cc2ccccc2oc1=O,i
O=c1[nH]c2ccccc2c(=O)n1CCCO,i
Cc1ccc([N+](=O)[O-])cc1S(=O)(=O)Nc1cccc(Cl)c1Cl,i
CCC(C(=O)NC1C2CC3CC(C2)CC1C3)c1ccccc1 (centres undefined),i
COc1ccc(C(=O)Nc2ccc(OCC(=O)O)cc2)cc1,i
COC(=O)Nc1ccc(S(=O)(=O)N2CCCC(C(=O)Nc3cccc4c3OCCO4)C2)cc1 (centres undefined),i
CC1(C)CC(=O)C2=C(C1)OC(N)=C(C#N)C21CCC2(CC1)OCCO2,i
O=C1c2ccccc2C(=O)N1CCSc1nnnn1-c1ccccc1,i
CCOc1cc(CO)ccc1OCc1cccc(F)c1,i
Nc1nc(N2CCCCC2)nc(N2CCCCC2)n1,2%
COc1ccc(-c2csc(Nc3ncccn3)n2)cc1OC,i
COC(=O)c1cc(NC(=O)CN(c2ccc(OC)cc2)S(=O)(=O)c2ccc(F)cc2)ccc1Cl,i
O=C(CN(c1ccccc1Cl)S(=O)(=O)c1ccccc1)NCCC1=CCCCC1,i
CCOC(=O)c1c(NC(=O)COc2ccccc2C)sc(C(=O)Nc2ccc(C)cc2C)c1C,i
COc1ccc(NC(=O)CC2C(=O)N(c3ccccc3)C(=S)N2Cc2cccs2)cc1 (centres undefined),2%
CCOC(=O)c1ccccc1NC(=O)CN(c1cc(Cl)ccc1C)S(C)(=O)=O,i
COC(=O)c1ccccc1NC(=O)NCc1ccc2c(c1)OCO2,i
COC(=O)COc1ccc(NC(=O)C2CCCO2)cc1 (centres undefined),i
CCC(C)c1ccc(OCC(=O)Nc2ccc3oc(-c4ccncc4)nc3c2)cc1 (centres undefined),1%
O=C(CSCc1ccc(Cl)cc1)N1CCCCC1,4%
N#CC(C(=O)NCc1cccs1)c1ccccc1 (centres undefined),i
O=C(CSc1nnc(NC(=O)c2ccccc2)s1)Nc1ccccc1C(F)(F)F,i
CCOC(=O)c1ccc(NC(=O)CN(c2ccccc2)S(=O)(=O)c2ccc(Cl)cc2)cc1,i
CCn1c(SCC(=O)NC2CCCCC2)nnc1-c1ccc(C)cc1,i
O=C(CC12CC3CC(CC(C3)C1)C2)Nc1ccc(N2CCN(C(=O)c3ccc(Cl)cc3)CC2)cc1,3%
C=CCSc1nnc(-c2ccc([N+](=O)[O-])cc2)n1-c1ccccc1,i
CCCc1cc(C(=O)OC)c(NC(=O)C2CC(C)=C(C)CC2C(=O)O)s1 (centres undefined),i
COCCNC(=O)c1cc2cc(Br)cc(OC)c2oc1=O,i
O=C(NCC1CCNCC1)c1ccccn1,i
CCOc1cc(C(=O)NC(=S)Nc2cc(C(=O)O)ccc2C)cc(OCC)c1OCC,1%
COc1cc(/C=C(\C#N)c2nc3ccccc3n2C)cc(Br)c1O,i
CCOC(=O)c1sc(NC(=S)NC(C)C2CCCO2)c(C(=O)OCC)c1C (centres undefined),i
CC(Oc1ccc(Cl)cc1Cl)C(=O)Nc1cccc(O)c1 (centres undefined),5%
C=CCc1cc(Cl)ccc1OCCCCNCCCOC,6%
CC(C)C1Cc2c(sc3nc(SCc4ccccc4)nc(N)c23)CO1 (centres undefined),i
COc1ccc([N+](=O)[O-])cc1NC(=O)CN1C(=O)C2C3C=CC(C3)C2C1=O (centres undefined),i
CC(C)(C)c1ccc(OCCCN2C(=O)C(=O)c3cc(Br)ccc32)cc1,5%
COc1cc(OC)nc(NC(=O)CS(=O)(=O)c2ccccc2)n1,i
CCc1[nH]nc2c1C1(CCN(C(=O)c3ccccc3)CC1)C(C#N)=C(N)O2,i
C=CCOc1ccc(-c2nc3c([nH]2)c(=O)n(C)c(=O)n3C)cc1OC,i
CCOC(=O)c1ccc(NC(=S)Nc2ccc(Oc3ccccc3)cc2)cc1,0.39µg/mL*
O=c1ccc2cc(S(=O)(=O)NCc3cccnc3)ccc2o1,i
O=C(Nc1ccc(Cl)c(Cl)c1)C(=O)NC1CC1,i
CCn1c(SCC(N)=O)nnc1-c1ccncc1,i
O=C(Nc1ccc2ccccc2c1)C(Cc1ccccc1)N1C(=O)c2ccccc2C1=O (centres undefined),i
COc1ccc(OCCCC(=O)Oc2ccc3c(C)cc(=O)oc3c2)cc1,i

# Next results follow.
canonical_smiles,Mtb growth
S=c1[nH]nc(-c2cccs2)n1-c1ccccc1Cl,4%
Cc1ccc(N2C(=O)NC(=O)/C(=C/C=C/c3ccco3)C2=O)cc1,i
CCOC(=O)Cn1cnc2sc(-c3ccccc3)cc2c1=O,?
COC(C(=O)Nc1ccc(S(=O)(=O)N2CCCCC2)cc1)c1ccccc1 (centres undefined),i
C#CC(CC)(CC)NC(=S)Nc1ccc(OC)cc1OC,41%
O=[N+]([O-])c1ccc(Oc2cccc3ccccc23)cc1,2%
CCn1c(NC2CCCCC2)nc2ccccc21,i
c1ccc(-c2noc(-c3ccccc3-c3ccccc3)n2)cc1,i
CN(c1ccccc1)S(=O)(=O)c1ccc(NC(=O)COc2ccccc2)cc1,i
O=c1c2ccccc2nc(/C=C/c2ccc(O)cc2)n1CCCO,i
COc1ccc(Cl)cc1NC(=O)C1CCN(S(=O)(=O)c2ccc(Cl)cc2)CC1,i
COC(=O)Cc1c(C)c2cc(Cl)c(OC/C=C/c3ccccc3)cc2oc1=O,0%
CC1(C)CC(C(=O)NCCC(c2ccccc2)c2ccco2)CCO1 (centres undefined),1%
c1ccc(Cc2nnc3sc(C4COc5ccccc5O4)nn23)cc1 (centres undefined),i
O=C(Nc1ccc(C(=O)N2CCCC2)cc1)Nc1ccc(Cl)cc1Cl,i
Cn1c(SCCCN2C(=O)c3cccc4cccc(c34)C2=O)nnc1-c1cccs1,i
COc1cc(SC)ccc1C(=O)N(CC#N)CC#N,i
Cc1c(C(=O)Nc2ccccc2[N+](=O)[O-])csc1-c1ccccc1,14%
CC(=O)Nc1ccc(Nc2nc(-c3ccc(F)cc3)cs2)cc1,16%
Cc1ccc(-c2csc(NC(=O)c3ccc4c(c3)OCO4)n2)c(C)c1,i
COC(=O)c1ccc(CSc2nnc(-c3ccccc3)n2-c2ccccc2)cc1,i
COc1ccc(-c2nnc(SCC(=O)Nc3ccccc3[N+](=O)[O-])o2)cc1,i
C=CCOc1c(Cl)cc(C2NC(=O)NC(C)=C2C(=O)OC)cc1OCC (centres undefined),i
CCC(C)C(Nc1ncnc2scc(-c3ccccc3)c12)C(=O)O (centres undefined),i
O=C(CSC1=NCCN1)C1COc2ccccc2O1 (centres undefined),2%
O=C(CN1CCOCC1)Nc1cccc(Br)c1,i
O=C(CN1CCOCC1)Nc1cc(C(F)(F)F)cc(NC(=O)CN2CCOCC2)c1Cl,i
Cc1nnc(SCC(=O)N2N=CCC2c2ccccc2)s1 (centres undefined),i
Cn1nnc(NCc2cc(Br)ccc2OCc2ccccc2F)n1,i
CC1CCCCN1C(=O)c1ccccc1Oc1ccccc1 (centres undefined),i
CCc1cccc(C)c1NC(=O)c1cccc(Oc2ccc(C(F)(F)F)cc2[N+](=O)[O-])c1,3%
COc1cc(NC(=O)c2ccccc2OC)c(C(=O)O)cc1OC,1%

# The list goes on, starting with the last 6 of the part before.
canonical_smiles,Mtb growth
O=C(CN1CCOCC1)Nc1cc(C(F)(F)F)cc(NC(=O)CN2CCOCC2)c1Cl,i
Cc1nnc(SCC(=O)N2N=CCC2c2ccccc2)s1 (centres undefined),i
Cn1nnc(NCc2cc(Br)ccc2OCc2ccccc2F)n1,i
CC1CCCCN1C(=O)c1ccccc1Oc1ccccc1 (centres undefined),i
CCc1cccc(C)c1NC(=O)c1cccc(Oc2ccc(C(F)(F)F)cc2[N+](=O)[O-])c1,3%
COc1cc(NC(=O)c2ccccc2OC)c(C(=O)O)cc1OC,1%
CC(=O)c1c(OC(=O)c2ccc(Cl)cc2Cl)ccc2c(C)cc(=O)oc12,1%
CC(C)OC(=O)COc1ccc(C(=O)NCc2ccccc2)cc1,0.91µg/mL*
COc1ccc(Cl)cc1NC(=O)NCc1cccnc1,i
C=C(C)CN1CCN(S(=O)(=O)c2ccc(C)c(N(C)S(=O)(=O)c3ccc(C)cc3)c2C)CC1,15%
O=C(NCc1ccncc1)C(c1ccccc1)c1ccccc1,i
O=C(COc1ccc(Br)cc1Cl)N1CCN(c2ccc(F)cc2)CC1,i
CCCC(=O)NC(=S)Nc1ccc(N(C)C(C)=O)cc1,i
N#C/C(=C/c1ccsc1)c1nc2ccccc2s1,37%
CCc1cc(C(=O)OC)c(NC(=S)Nc2ccc(CN3CCCCC3)cc2)s1,i
Fc1cccc(NC(=S)Nc2ccccc2Cl)c1,i
COc1ccc(F)cc1S(=O)(=O)NCCCn1ccnc1,i
CCOC(=O)c1ccc(NCc2nc3ccccc3n2C)cc1,14%
Cc1nc(C)c(-c2csc(Nc3ccc(Cl)cn3)n2)s1,i
